Source: PubChem BioAssay
Vaccinia mCherry: vaccinia inhibition (mCherry reporter). Vaccinia virus mCherry reporter infection, fluorescence; about a quarter of the inactives have no number. hit rate 0.63% among 310,000. Potency, µM (top dose mostly 36.5 µM), inactives show at the top dose activity change, negative = inhibition, most hits filed as inhibitors; active = well fitted inhibition curve with a large enough effect; inconclusive = small, poorly fitted or top-dose-only effect; inactive = no such curve, though single readings can be large or run the other way; tested in A549 cells; further: nearly all actives have a fitted effect of over 35% in size; inactives centre near -10
VACV Venus inh: vaccinia inhibition (Venus reporter). Vaccinia virus Venus reporter expression, fluorescence. AID 720580. hit rate 0.46% among 330,000. Potency, µM (top dose mostly 36.5 µM), for the others: at the top dose activity change, negative = inhibition, actives largely listed as inhibitors; active means well fitted inhibition curve with a large enough effect; inconclusive means small, poorly fitted or top-dose-only effect; inactive means no such curve, though single readings can be large or run the other way; tested in A549 cells; further: nearly all actives have a fitted effect of over 30% in size; inactives centre near -10
An asterisk follows results filed as active; i = inactive; ? = inconclusive; · = not tested or not shown; & = joins results of further samples. On the % scale 0 is the no-effect control and ±100 the full control effect; potency means the concentration at half of the fitted maximal effect.

SMILES | Vaccinia mCherry | VACV Venus inh
O=C(CCNS(=O)(=O)c1cccc2nsnc12)NCc1cccs1 | ? | -27%
Cc1cc(C)nc(SCc2ccc(C(=O)NN=C3C4CC5CC(C4)CC3C5)cc2)n1 | -12% | -6%
O=C(COc1cccnc1[N+](=O)[O-])N1CCN(C(=O)c2ccco2)CC1 | -8% | -10%
CCCCn1c(O)c2n(c1=O)Cc1ccccc1N=C2c1ccc(C)cc1 | 10% | -7%
CCOc1ccc(CCNC(=O)c2cc3c(s2)-c2ccccc2OC3)cc1OCC | -9% | 3%
CCOc1ccc(C2C(C(=O)Nc3ccccc3)=C(C)Nc3nc(-c4ccccc4)nn32)cc1OC (centres undefined) | -18% | -12%
CCNC(=O)COC(=O)/C=C/c1cccc([N+](=O)[O-])c1 | 1% | -7%
CC(=O)Oc1ccc(C)cc1N1C(=O)c2ccc(C(=O)O)cc2C1=O | · | -16%
CCOc1cc(-c2noc(N)c2C(=O)OC)cc(OCC)c1OCC | -12% | -7%
Cc1ccc(NC(=O)c2ncn(CC(=O)NCc3ccc4[nH]ccc4c3)n2)cc1C | -1% | -16%
CCOC(=O)c1[nH]cnc1C(=O)NCc1ccccc1 | -8% | -9%
CCOC(=O)CN1CC23C=CC(O2)C(C(=O)NC2CCCC2)C3C1=O (centres undefined) | 1% | 4%

Some of the entries so far, as a markdown table.
| compound | Vaccinia mCherry | VACV Venus inh |
| --- | --- | --- |
| CCOc1cc(-c2noc(N)c2C(=O)OC)cc(OCC)c1OCC | -12% | -7% |
| Cc1ccc(NC(=O)c2ncn(CC(=O)NCc3ccc4[nH]ccc4c3)n2)cc1C | -1% | -16% |

Further compounds
SMILES | Vaccinia mCherry | VACV Venus inh
COC(=O)CC1(C(=O)OC)Oc2ccc(Br)cc2C(=O)N1c1ccc(Br)cc1Cl (centres undefined) | -26% | ?
Cc1cccc(C)c1NC(=O)C(c1ccccc1OC(F)(F)F)N1CCN(C)CC1 (centres undefined) | -25% | ?
Cc1cc(N(CCCl)CCCl)ccc1C=NNC(=O)Cc1cc(=O)oc2cc(O)ccc12 | -13% | -28%
Cc1cc(C)cc(-n2c(/C=C/c3cccc(F)c3)nc3ccccc3c2=O)c1 | -8% | -14%
Cc1cccc(CCN2CCN=C2Nc2ccccc2)c1 | -14% | -20%
CCOC(=O)Cn1nnc2c(sc3nc4c(c(-c5ccc(Cl)cc5)c32)CCC4)c1=O | · | -4%
C/C(=N\NC(=O)c1ccoc1C)c1ccccc1O | 1.1µM* | ?
O=C(COC(=O)c1cnccn1)c1ccc(OC(=O)c2ccccc2)cc1 | · | 16%
Cc1ccc(S(=O)(=O)NCc2ccccc2)cc1C(=O)N1CCN(S(=O)(=O)c2ccccc2F)CC1 | -8% | -19%
CCC(Sc1nc2c(cnn2-c2ccc(Cl)cc2)c(=O)[nH]1)C(=O)OC (centres undefined) | i | -14%
CSc1cccc(NC(=O)/C=C/c2ccco2)c1 | -5% | 5%
Cc1cccc(NC(=O)c2ccc(N3CCCCC3)c([N+](=O)[O-])c2)n1 | -13% | -17%
Cc1ccccc1C(=O)NC(=S)NC1CC1 | -18% | -13%
CCCCN(C)CCCNC(=O)C1CCN(S(=O)(=O)CCC)CC1 | -16% | 3%
Cc1c(Cl)cccc1NC(=O)CSc1ccc(-c2ccccn2)nn1 | -7% | -4%
COc1cc(/C=C/C(=O)O)cc(S(=O)(=O)Nc2cc(S(=O)(=O)N3CCCCC3)ccc2Cl)c1OC | i | -10%
CCOC(=O)C1CCN(C(=O)c2ccc(C)c(S(=O)(=O)N3CCCC3)c2)CC1 | -21% | -10%
O=C(Cc1n[nH]c(=O)[nH]c1=O)N/N=C/c1ccccc1 | i | -10%
Cc1ccc(C)c(NC(=O)CCN2CCOCC2)c1 | -14% | 1%
COc1ccc(C2=Nc3ccccc3N(C(=O)c3cnccn3)C2C(=O)NC2CCCC2)cc1 (centres undefined) | ? | -9%
CC(=O)Nc1sc(-c2ccccc2)nc1-c1ccccc1 | -7% | -12%
Cc1ccc(S(=O)(=O)CC2CSc3nc4ccccc4n32)cc1 (centres undefined) | -24% | -22%
COc1ccc(NC(=O)c2ccc3c(c2)N(Cc2cccc(Cl)c2)C(=O)c2ccccc2S3=O)cc1Cl (centres undefined) | i | -10%
C=CCc1cccc2cc(C(=O)N3CCN(C(=O)c4ccco4)CC3)c(=O)oc12 | -8% | -1%

Entries shown so far containing a nitro group on carbon:
SMILES | Vaccinia mCherry | VACV Venus inh
O=C(COc1cccnc1[N+](=O)[O-])N1CCN(C(=O)c2ccco2)CC1 | -8% | -10%
CCNC(=O)COC(=O)/C=C/c1cccc([N+](=O)[O-])c1 | 1% | -7%
Cc1cccc(NC(=O)c2ccc(N3CCCCC3)c([N+](=O)[O-])c2)n1 | -13% | -17%

(cont.)
SMILES | Vaccinia mCherry | VACV Venus inh
CC1(C)CC(=O)/C(=C(\O)Cc2ccccc2)C(=NCCCCCC(=O)O)C1 | i | -4%
CC(=O)c1c[nH]c(C(=O)NCc2ccccc2Cl)c1 | -13% | -6%
CC1(c2ccccc2Cl)NC(=O)N(CC(=O)N2CCc3ccccc3C2)C1=O (centres undefined) | i | -6%
CN(C)P(=O)(Nc1cccc2ccccc12)Nc1cccc2ccccc12 | -17% | -6%
CCOc1cc(S(=O)(=O)NCCc2cccc(C)c2)c(OCC)cc1-n1cnnn1 | -12% | -16%
COc1cccc(/C=C/C(=O)c2cccc([N+](=O)[O-])c2)c1OC | -4% | -22%
O=[N+]([O-])c1c(Nc2cccc(O)c2)cc(Cl)c2nonc12 | ? | ?
Cc1ccc(C)c(CC(=O)N2CCCC(c3cc(C(=O)NCc4cccnc4)no3)C2)c1 (centres undefined) | -3% | 3%
Cc1cc(C)cc(NC(=O)Nc2ccc3c(c2)N(C)C(=O)CS3)c1 | -29% | -22%
COc1ccc(S(=O)(=O)N2CCN(c3nc(-c4cccs4)nc4ccccc34)CC2)cc1OC | -8% | -12%
COc1ccc(/C=N/NC(=O)c2ccc(=O)n(C)c2)cc1OC | i | 2%
Cc1cc(C)cc(NC(=O)C2C3C=CC4(O3)C2C(=O)N(CCN2CCCCC2)C4C(=O)NC2CCCCC2)c1 (centres undefined) | i | -2%
O=C(Cc1ccc(-n2c(=O)c3sccc3n(CC(=O)Nc3ccccc3)c2=O)cc1)NCc1ccco1 | i | -17%
O=C(CN1CCCCC1)Nc1cc(Cl)ccc1Oc1ccccc1 | -8% | -2%
O=[N+]([O-])c1ccc(C2C3C(c4ccccc4)=NC4(CCCC4)N32)cc1 (centres undefined) | -4% | -7%
Cc1cn([C@H]2C[C@H](O)[C@@H](CCC(=O)NCc3ccco3)O2)c(=O)[nH]c1=O | -28% | -12%
Cc1csc(NC(=O)CCc2c(C)nc3cc(-c4ccc(Cl)cc4)nn3c2C)n1 | -3% | 3%
CN(C)c1ccc(Nc2nc(N)c([N+](=O)[O-])c(N3CCOCC3)n2)cc1 | i | -24%
O=C(OC1Cc2c(O)cc(O)cc2OC1c1cc(O)c(O)c(O)c1)c1cc(O)c(O)c(O)c1 (centres undefined) | -14% | -1%
C[C@@H](CSc1ccccc1)CN1CC[C@H](NC(=O)OCc2ccccc2)CCC1=O | 0% | ?
COc1ccc(S(=O)(=O)N2CCOC2CNC(=O)C(=O)NCCc2ccccc2OC)cc1C (centres undefined) | -22% | -21%
O=C(CCNS(=O)(=O)c1ccccc1F)NCc1ccc2c(c1)OCO2 | i | -3%
COc1ccc(-c2noc(CN3CCCCC3c3nccn3C)n2)cc1 (centres undefined) | -7% | 2%
CC(C)(C)OC(=O)NCc1ccc(NC(=O)c2nc[nH]c2C(=O)NCCCCNC(=O)c2[nH]cnc2C(=O)Nc2ccc(CNC(=O)OC(C)(C)C)cc2)cc1 | -27% | ?
CCOc1ccc(Nc2oc(-c3cccs3)nc2C#N)cc1 | ? | ?
O=C(N/N=C/c1ccccc1O)C(=O)N1CCCCCC1 | 7.9µM* | -27%
CCN(c1ccc(NC(=O)CCc2nc3sc4c(c3c(=O)[nH]2)CCCC4)cc1)C(C)C | -14% | -29%
O=C(c1ccc(NC2=NC3CS(=O)(=O)CC3S2)cc1)N1CCc2ccccc2C1 (centres undefined) | -9% | 0%
CCOC(=O)C(C#N)=C1CCN(Cc2ccccc2)CC1 | -1% | -13%
COc1ccc(-c2nc(NC(=O)CSc3nnc4ccccn34)ns2)cc1 | · | -10%
CCC(=O)c1ccc(OCC(O)CN2CCN(S(=O)(=O)N3CCCCC3)CC2)cc1 (centres undefined) | · | 13%
CCc1ccccc1Oc1ccc(S(=O)(=O)N2CCN(C)CC2)cn1 | -17% | -10%
O=C(CNC1CCCCC1)Nc1cccc(C(F)(F)F)c1 | -19% | -29%
Cc1ccccc1NS(=O)(=O)c1nnc(NC(=O)c2ccccc2C)s1 | 0% | -14%&-2%
NC(=S)N/N=C/c1ccc([N+](=O)[O-])cc1 | ? | ?
C[C@@H]1CN([C@@H](C)CO)C(=O)CCCn2nncc2CO[C@@H]1CN(C)S(=O)(=O)c1ccc(C#N)cc1 | -4% | -19%
Cc1cc(C(=O)CSc2nc(N)cc(N)n2)c(C)n1-c1cccc(F)c1 | -17% | -21%
CCN(CC(=O)Nc1cccc(OC)c1)C(=O)C1CC(=O)N(Cc2ccccc2Cl)C1 (centres undefined) | i | -25%
O=C(Cc1ccccc1)NNC(=O)Cc1ccccc1 | -2% | -1%
Cc1cc(C)cc(N(C(=O)CNS(=O)(=O)c2ccccc2)C(C(=O)NCc2ccccc2)c2ccc(C)o2)c1 (centres undefined) | 0% | -12%
Cn1ncc2c(c(SCc3ccc(Cl)cc3Cl)nn2C)c1=O | -18% | -24%
O=C(CNC(c1ccccc1)c1ccccc1)Nc1ccc(F)cc1 | -7% | 6%
Cc1c(Cl)cccc1NC(=O)CCC(=O)N/N=C/c1ccc[nH]1 | ? | ?
CC(C)(C)C(=O)Oc1cccc(Nc2ncnc3ccccc23)c1 | -16% | -16%
CS(=O)(=O)Nc1cccc(NC(=O)C2Cc3c(-c4cccc(F)c4)ccnc3O2)c1 (centres undefined) | 8.9µM* | 10µM*
CCNC(=O)COc1ccc(OCc2ccccc2)cc1 | -13% | -10%
COc1cc(-c2noc(-c3cc(C)[nH]n3)n2)cc(OC)c1OC | -5% | -10%
CCCCOc1ccc2ccccc2c1C=O | -13% | -8%

Single records, as listed above. Order of values: Vaccinia mCherry | VACV Venus inh
`Cc1ccc(C)c(NC(=O)CCN2CCOCC2)c1` in the list: -14% | 1%
`CCOC(=O)C1CCN(C(=O)c2ccc(C)c(S(=O)(=O)N3CCCC3)c2)CC1` in the list: -21% | -10%
`Cc1cccc(CCN2CCN=C2Nc2ccccc2)c1` in the list: -14% | -20%
`CC(=O)c1c[nH]c(C(=O)NCc2ccccc2Cl)c1` in the list: -13% | -6%
`CCN(CC(=O)Nc1cccc(OC)c1)C(=O)C1CC(=O)N(Cc2ccccc2Cl)C1` (centres undefined) in the list: i | -25%

The list goes on:
SMILES | Vaccinia mCherry | VACV Venus inh
O=C(CN1C(=O)c2ccccc2C1=O)NCC(=O)OCC(=O)c1ccc(Br)cc1 | i | 2%
COc1ccc(CN(Cc2cccn2C)S(=O)(=O)c2ccccc2)cc1 | -9% | -7%
N#C/C(=C\c1ccccc1[N+](=O)[O-])c1nc(C2CC2)cs1 | -19% | -15%
Cc1cccc(C(C)C)c1NC(=O)COC(=O)CCC(=O)N(CC(C)C)c1c(N)n(CC(C)C)c(=O)[nH]c1=O | i | -2%
CCOC(=O)CNC(=O)CSc1ccc(-c2nc3ccccc3[nH]2)cn1 | i | -10%
CCc1cc2c(N[C@@H](C)C(=O)O)ncnc2s1 | · | -14%
Cc1ncoc1C(=O)NCC1=C(c2ccc3ccccc3c2)C[C@@H]2CC[C@H]1N2Cc1ccco1 | -3% | -16%
COc1cc(OC)cc(-c2c(-c3cccs3)c3cc(-c4cc(OC)c(OC)c(OC)c4)ccc3n2C)c1 | i | -11%
O=C(NNS(=O)(=O)c1ccc2ccccc2c1)c1cccnc1 | -11% | -13%
Cc1nc2c(C)cccn2c1/C(O)=C1\C(=O)C(=O)N(CCN(C)C)C1c1ccccc1 (centres undefined) | i | -7%
CCCn1nc2cc(C(=O)NCc3ccc(C)cc3)ccc2c1OC | i | -6%
N#CCc1c[nH]c2ccc([N+](=O)[O-])cc12 | i | -1%
O=C(O)C1=C(C2CCCCC2)C(=O)c2ccccc21 | -25% | -3%
CC1=C(C(N)=O)C(c2ccccc2F)NC(=O)N1 (centres undefined) | i | -9%
O=S(=O)(Nc1nc2ccccc2nc1Cl)c1ccc(Cl)cc1 | -19% | -16%
C=CCn1c(SCC(=O)Nc2ccc(O)cc2)nc2sc(C)c(C)c2c1=O | i | -6%
N#Cc1ccccc1OCC(=O)NC(=O)NC1CCS(=O)(=O)C1 (centres undefined) | i | -7%
COc1ccccc1C1/C(=C(/O)c2ccc(OC(C)C)cc2)C(=O)C(=O)N1c1cc(C)on1 (centres undefined) | -24% | -8%
Cc1ccc(OCCSc2nc(NC(C)C)nc(NC(C)C)n2)cc1 | ? | -24%
